Rango release inh = qHTS Assay for Inhibitors of RanGTP induced Rango (Ran-regulated importin-beta cargo) - Importin beta complex dissociation. Snurportin-1 (Homo sapiens) + GTP-binding nuclear protein Ran (Homo sapiens) + Importin …. Biochemical FRET Rango-importin beta, RanGTP-induced dissociation. Potency, µM (titrated, usually from 46.1 µM), inactives show at the top dose activity change, negative = inhibition. actives 0.071% (n = 340,000). AID 540253, 2011; active means falling FRET ratio curve, often poorly fitted, with flat reads before Ran was added; inconclusive means other falling curves, or compound fluorescence or quenching; inactive means flat or rising ratio curve;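 note: potency is the fitted concentration of half-maximal effect; % of control where 0% means no effect; nearly all actives have a fitted effect of over 45% in size; -100% = wells without RanGTP and RCC1; the record marks most hits as doubtful in a second field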
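Rango/importin beta premix (0.1/0.25 uM final), PBS + 1 mM DTT + 0.02% Tween-20 + 0.1% BSA; cpd 5 min RT; FRET pre-read; + RanGTP-RCC1 (0.6 uM Ran, 2 mM GTP, 0.2 uM RCC1); 45 min RT; FRET post-read, ex 430, em 486/530 nm.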
Rango-impB inh = qHTS Assay for Inhibitors of Rango (Ran-regulated importin-beta cargo) - Importin beta complex formation; Rango CFP/YFP FRET sensor + importin beta, 45 min; actives 0.031% (n = 340,000); Potency, µM (top dose mostly 92.2 µM), without a hit: at the highest dose inhibition of complex formation; Importin subunit beta-1 (Homo sapiens), Q14974; AID 540263, 2011; active = rising FRET ratio curve, often small or poorly fitted; inconclusive = mostly compound fluorescence or quenching in the first reads; inactive = flat curves in all reads;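 note: potency is the fitted concentration of half-maximal effect; 0% = DMSO wells and 100% = buffer wells lacking importin beta; nearly all actives have a fitted effect of over 15% in size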
Target sequence (Q14974 whole entry, looked up): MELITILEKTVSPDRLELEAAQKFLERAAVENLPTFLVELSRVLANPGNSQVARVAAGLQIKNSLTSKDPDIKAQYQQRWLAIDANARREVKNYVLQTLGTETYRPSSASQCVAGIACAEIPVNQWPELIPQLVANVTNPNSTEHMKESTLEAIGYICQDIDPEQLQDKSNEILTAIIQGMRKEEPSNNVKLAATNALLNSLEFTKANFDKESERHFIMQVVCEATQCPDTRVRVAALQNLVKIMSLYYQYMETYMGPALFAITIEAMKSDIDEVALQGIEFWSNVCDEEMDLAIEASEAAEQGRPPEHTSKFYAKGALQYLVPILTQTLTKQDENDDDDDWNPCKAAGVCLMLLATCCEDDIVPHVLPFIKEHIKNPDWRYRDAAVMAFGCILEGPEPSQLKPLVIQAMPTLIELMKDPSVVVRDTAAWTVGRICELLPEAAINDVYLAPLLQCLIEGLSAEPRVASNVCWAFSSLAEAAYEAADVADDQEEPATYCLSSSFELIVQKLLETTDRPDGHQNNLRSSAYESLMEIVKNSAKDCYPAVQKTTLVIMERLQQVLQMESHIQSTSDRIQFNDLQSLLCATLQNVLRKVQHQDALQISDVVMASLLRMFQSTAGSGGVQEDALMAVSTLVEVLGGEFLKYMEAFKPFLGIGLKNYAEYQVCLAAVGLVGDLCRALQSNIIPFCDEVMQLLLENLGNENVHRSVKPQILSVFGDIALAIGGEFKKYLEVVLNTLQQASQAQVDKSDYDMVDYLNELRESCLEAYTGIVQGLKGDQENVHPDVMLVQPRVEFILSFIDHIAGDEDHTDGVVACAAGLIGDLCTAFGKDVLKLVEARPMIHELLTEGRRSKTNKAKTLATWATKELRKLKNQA
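Inhibition scored from the CFP 486 nm/YFP 530 nm FRET ratio 45 min after adding 0.125 microM importin beta to 50 nM Rango biosensor preincubated 5 min with compound (room temperature, PBS with DTT, Tween-20, BSA). No-importin wells as positive control.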
GLA inh pH 4.5 = qHTS Assay for Inhibitors of Human alpha-Galactosidase at pH 4.5. AID 1467, 2008. purified enzyme, 4-MU-alpha-Gal fluorescence, pH 4.5. Alpha-galactosidase A (Homo sapiens), P06280. activity change, negative = inhibition, % at 105 µM. 230,000 tested, under 10 active; inconclusive = small, poorly fitted or top-dose-only inhibition, or a rising curve; inactive = flat fitted curve, though single readings scatter; no compound was filed as active;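 note: 0% = full activity with enzyme and -100% = basal without enzyme; dose as in the result columns while the protocol names 77 µM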
miR-21 FLuc = qHTS Assay for Modulators of miRNAs and/orActivators of miR-21; 340,000 tested, under 10 active; Potency, µM (series often up to 38.3 µM), for inactives: top-dose reporter change, positive = more light; HeLa miR-21 FLuc reporter, luciferase, 48 h; active = well fitted rising curve with a large enough effect; inconclusive = small, poorly fitted or top-dose-only effect; inactive = no such curve, though single readings can be large or run the other way;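 note: % of control where 0% means no effect; miR-21 action dims this reporter so a rising signal means less miR-21 action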
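HeLa miR-21-FLuc reporter line, endogenous miR-21; 2000 cells/well in DMEM/10% FBS; compound titration up to ~40uM final, 48 h, 37 degree Celsius; luciferase detection reagent, 15 min lysis, CCD luminescence.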
Active calls of the source: *; ? = inconclusive; . = no result given; & = joins results of further samples.

molecule | Rango release inh | Rango-impB inh | GLA inh pH 4.5 | miR-21 FLuc
Cc1ccnc(SCC(=O)N2CCCc3ccccc32)n1 | -11% | -1.0% | -3 | -22%
CCCCCCCCCCCCS(=O)(=O)CCC(=O)O | -7% | -4.8% | -3 | 0%
O=C(CN(Cc1ccco1)C(=O)CNS(=O)(=O)c1ccc(F)cc1)NCc1ccc(F)cc1 | 29% | 3.1% | 0 | 6%
CCc1cccc(CC)c1N(COC)C(=O)Cn1ccccc1=N | -1% | 5.6% | -7 | -2%
COc1ccc(NC(=O)c2sc3nc(-c4cccnc4)ccc3c2N)cc1OC | ? | ? | -5 | -7%
O=C(Nc1ccc2nc3n(c(=O)c2c1)CCCC3)c1cccc(F)c1 | 1% | -2.0% | . | -32%
Cn1c(=O)oc2cc(S(=O)(=O)N3CCCC(C(=O)Nc4ccccn4)C3)ccc21 (stereo unspecified) | 2% | 3.9% | 8 | 0%
COc1ccc(NC(=O)CN(C)S(=O)(=O)c2ccc3c(c2)n(C)c(=O)c(=O)n3C)cc1 | -5% | -1.5% | . | 1%
CCCOc1ccc(/C=N/Nc2ccccc2[N+](=O)[O-])c(OCCC)c1 | ? | 0.6% | -2 | -29%
O=C(c1ccc2ccccc2c1)N1CCN(c2ccc([N+](=O)[O-])c(N3CCOCC3)c2)CC1 | 15% | 4.8% | 1 | 1%
CCCCOc1ccc(C(=O)NCC(=O)NCC(c2cccs2)N2CCOCC2)cc1 (stereo unspecified) | 10% | -0.7% | . | .
Cc1ccc(-c2nc(NC(=O)CSc3ccc4ccccc4n3)ns2)cc1 | -1% | 1.5% | 0 | 5%&-6%
CC(C)c1ccccc1NC(=S)N1CCN(S(=O)(=O)c2cccs2)CC1 | -2% | -4.9% | 1 | 5%
Cc1ccc(CNC(=O)/C(C#N)=C\c2ccc(N(C)C)cc2)cc1 | . | . | 3 | -4%
O=C(O)CCc1nc2ccccc2c(=O)[nH]1 | 7% | -1.3% | -1 | -1%
CCOc1ccc(NS(=O)(=O)c2ccc(C(=O)NNC(=O)c3ccccc3O)cc2)cc1 | 1% | 0.6% | . | .
Cc1[nH]n(C(N)=S)c(=O)c1N=Nc1cccc(Cl)c1 | 1% | ? | . | -43%
Cc1cccc(N=C2NC(=O)/C(=C/c3cccnc3)S2)c1C | 17% | -3.1% | -5 | 5%
Cc1cc(C)cc(NC(=O)[C@H](NC(=O)[C@@H]2Cc3ccccc3CN2)c2ccccc2)c1 | -16% | -1.3% | . | -11%
COc1cc2[nH]c3ccccc3c2cc1C | -4% | -0.3% | -2 | 6%
Cc1ccc(S(=O)(=O)N2CCN(C(=O)CCn3nc(C)c(C)c3C)CC2)cc1C | 21% | 0.8% | . | 0%
O=C(CCl)Nc1cccc(-c2cnc3ccccc3n2)c1 | -1% | -3.1% | 4 | ?
O=C(COC(=O)C1CC(=O)N(Cc2ccco2)C1)c1ccc(OC(=O)c2ccco2)cc1 (stereo unspecified) | -2% | -2.0% | 1 | -1%
O=C(CN1CCN(S(=O)(=O)c2ccc(F)cc2)CC1)Nc1ccccc1F | 7% | 3.4% | 5 | -6%
COc1ccccc1Sc1ccccc1/C=N/NC(N)=O | 1% | 0.5% | -7 | 7%
COc1ccc([N+](=O)[O-])cc1NC(=O)CSc1ncccn1 | -6% | -1.4% | -4 | -7%
C/C(=N\NC(=O)Cn1ccc(C(F)(F)F)n1)c1ccc(N2CCOCC2)cc1 | 2% | 4.2% | 0 | -7%
COc1ccc(CN2CCC(n3nccc3NC(=O)c3ccc4c(c3)OCO4)CC2)cc1C | -1% | -1.2% | . | 15%
COc1cccc(CC2(CO)CCCN(C(=O)c3cc[n+]([O-])cc3)C2)c1 (stereo unspecified) | -4% | 5.4% | 3 | -2%
OCc1cn(-c2ccccc2)nc1-c1ccco1 | -11% | 0.0% | -6 | -49%
Cc1ccc(-n2c(=O)[nH]cc(C(=O)Nc3ccc4c(c3)OCCO4)c2=O)cc1 | 1% | 2.2% | -13 | -1%
O=C(NCC1CCC(C(=O)O)CC1)OCc1ccccc1 (stereo unspecified) | -9% | -0.3% | 3 | 0%
Cc1cccc(/C=N/NC(=O)c2ccncc2)n1 | -9% | 0.9% | . | -3%
Cc1nnc(SCCn2c(N3CCCCC3)nc3c2c(=O)n(C)c(=O)n3C)s1 | 0% | 4.1% | . | .
Cc1ccc(S(=O)(=O)CCC(=O)Nc2cc(Cl)ccc2-n2cncn2)cc1 | -2% | ? | . | .
CCC1Nc2ncnc(N3CCN(c4ccccn4)CC3)c2N(Cc2ccc(Br)cc2)C1=O (stereo unspecified) | -10% | -0.9% | . | .
CC1(C)CC(=O)C2=C(C1)OC(N)=C(C#N)[C@@]21C(=O)N(CC(N)=O)c2ccccc21 | -14% | -1.3% | 8 | 0%
O=C(CCN1CCCCC1)c1cccc(Cl)c1 | -10% | -0.2% | . | .
Cc1ccc(NC(=O)c2cccc(S(=O)(=O)N3CCN(c4ccccc4)CC3)c2)nc1 | 18% | -0.6% | . | .
CCc1ccc(NC(=O)c2cc(S(=O)(=O)N3CCCC3)c[nH]2)cc1 | -1% | 0.4% | . | 16%
Cc1ccc(S(=O)(=O)N(C)C)cc1NC(=O)CSc1ncc(C(F)(F)F)cc1Cl | 4% | -2.0% | -10 | -5%
CC(=O)CSc1ncnc2sc3c(c12)CCC3 | 1% | -2.0% | -5 | -27%
O=[N+]([O-])c1ccc2ccn(C3OCC(O)C(O)C3O)c2c1 (stereo unspecified) | -6% | -2.6% | 1 | 0%
CC(C)(C)NC(=O)NC(=O)COC(=O)c1cccc(OC(F)F)c1 | -1% | 2.0% | -28 | 2%
Cc1cc(C)c(S(=O)(=O)Cc2ccccc2)c(OC(C)C)n1 | 6% | 0.0% | . | 2%
COC(=O)C1=C(C)N(c2ccc(OC)cc2)C(=O)/C1=C\c1cccs1 | -9% | 4.8% | 1 | -12%
CC(=O)N1C(C)(C)CC(=NOC(=O)c2ccc(C)cc2)CC1(C)C | 20% | 2.8% | 5 | -1%
Oc1ccccc1-n1nc2ccc3nonc3c2n1 | 1% | -3.4% | -1 | -20%
N=C(N)c1ccccc1 | -9%&15% | 3.9%&-0.2% | -13&-4 | 0%
O=C(Nc1ccc(Cl)cc1)c1cccnc1N1CCCCC1 | 5% | -0.1% | -4 | 1%
COc1ccc(NC(=O)CC(C)C)c([N+](=O)[O-])c1 | -7% | 0.3% | 1 | -1%
COc1ccc(S(=O)(=O)n2nc(OCc3cccs3)cc2N)cc1 | 2% | 0.4% | -1 | 7%
Cc1ccc(N2C(=O)c3sc4nnc(C)c(=O)n4c3C2=O)cc1 | 0% | 0.1% | -9 | -1%
O=C(NCCCN1CCOCC1)c1nn(-c2ccccc2)c(=O)c2ccccc12 | 0% | 5.6% | . | .
Cc1nn(-c2ccccc2)c(Cl)c1C(=O)Nc1c(C)n(C)n(-c2ccccc2)c1=O | -5% | 4.8% | -30 | 0%
Cc1ccc2nc(C)cc(N/N=C/c3ccc(F)cc3)c2c1 | -6% | -2.9% | 15 | -4%
O=C(c1ccc(Cl)cc1Cl)N1CCSCC1 | 13% | 0.6% | 1 | 0%
Cc1cc([N+](=O)[O-])ccc1NC(=O)c1ccco1 | 4% | 0.3% | -4 | -1%
CC(C)(CSc1ncccn1)NS(=O)(=O)c1ccccc1 | 16% | 2.9% | 6 | -6%
CCCCN(C(=O)C1CC(=O)N(Cc2ccc(C)cc2)C1)c1c(N)n(CCCC)c(=O)[nH]c1=O (stereo unspecified) | -6% | 1.7% | . | .

In a second layout: results already given.
Rango release inh | Rango-impB inh | GLA inh pH 4.5 | miR-21 FLuc | SMILES
2% | 0.4% | -1 | 7% | COc1ccc(S(=O)(=O)n2nc(OCc3cccs3)cc2N)cc1
-7% | 0.3% | 1 | -1% | COc1ccc(NC(=O)CC(C)C)c([N+](=O)[O-])c1

(list continues)
molecule | Rango release inh | Rango-impB inh | GLA inh pH 4.5 | miR-21 FLuc
O=C(Nc1ccc(S(=O)(=O)NC2=NCCCCC2)cc1)c1cc(S(=O)(=O)N2CCOCC2)ccc1F | 8% | 0.2% | . | 4%
COc1ccc(-c2nc(CN3CCC(C(=O)NC4CCN(Cc5ccccc5)CC4)CC3)c(C)o2)cc1OC | 1% | -1.9% | . | -2%
COc1ccc(C(=O)Nc2cccnc2Cl)cc1OC | -2% | 2.2% | . | -18%
CC(C)OC(=O)C1C2C=CC3(CN(Cc4cccs4)C(=O)C13)O2 (stereo unspecified) | -1% | -0.2% | 6 | -3%
COc1cc(OC)c(OC)cc1CN1CCC(O)CC1 | -12% | ? | 3 | -1%
COc1cccc(C(=O)C(C#N)=C(SC)SC)c1 | -2% | -1.9% | -2 | 6%
CCc1cc(C=C(Cl)Cl)oc(=O)c1C | -1% | -3.0% | -9 | 0%
COc1ccc(-n2nc(C(=O)NCC(=O)NC(C)C)c3ccccc3c2=O)cc1OC | 3% | 3.8% | . | 3%
COc1ccc(S(=O)(=O)N2CCCOC2CNC(=O)C(=O)NCc2ccco2)cc1 (stereo unspecified) | -1% | -3.4% | 4 | -1%
Cc1ccc2cc(CCNC(=O)c3cccc([N+](=O)[O-])c3)c(=O)[nH]c2c1C | -13% | -1.9% | 7 | 4%
C#CCOC(=O)c1ccccc1C(=O)O | -8% | 3.1% | 10 | -5%
O=C(Nc1ccccn1)c1ccc(Cl)c(S(=O)(=O)N2CCCCCC2)c1 | -4% | 0.8% | . | .
CC(=O)c1sc(NC(=O)CS(=O)(=O)c2ccc(F)cc2)nc1C | -27% | -5.5% | . | .
O=S(=O)(NCc1ccco1)c1ccc2c(c1)Cc1ccccc1-2 | -2% | ? | -1 | -32%
CCC(=O)N=c1sc2cc(F)cc(F)c2n1C | 6% | 2.1% | . | .
COc1ccc(NC(=O)Nc2ccc(O)c3ccccc23)cc1 | ? | -2.4% | . | .
Cc1[nH]nc2c1C(c1ccccc1)C1=C(CC(C)(C)CC1=O)N2 (stereo unspecified) | -1% | -4.2% | 1 | -5%
CCOC(=O)C(=CNNc1c(C)csc1C(=O)OC)C(=O)OCC | ? | -3.3% | -5 | 0%
O=C1CCc2cc(S(=O)(=O)NC(Cc3ccccc3)C(=O)NC3CCCCC3)ccc2N1 (stereo unspecified) | . | . | -3 | 3%
Cc1cccc(NC(=O)Cn2c(=O)n3nc(CCn4nc(C)cc4C)nc3c3ccccc32)c1 | -10% | 3.9% | 2 | 3%
CCN(CC)CCN(Cc1cc2ccc(C)cc2[nH]c1=O)C(=O)NC1CCCCC1 | 8% | 0.5% | 7 | -5%
Cn1ncc([N+](=O)[O-])c1C(=O)Nc1cccc2ccccc12 | -1% | 1.0% | . | -1%
CCc1ccc(OCC(=O)O/N=C(\N)c2ccccn2)cc1 | 14% | -0.7% | -5 | -47%
CC(=O)c1cccc(NC(=O)NCc2ccc3c(c2)OCO3)c1 | 9% | -4.2% | . | -2%
CC(C)c1csc(CN2CCN(CCc3ccccc3)C(CCO)C2)n1 (stereo unspecified) | 10% | -1.9% | -13 | -1%
CC(NCC(O)COc1ccc(S(=O)(=O)N2CCOCC2)cc1)c1ccccc1 (stereo unspecified) | 3% | 0.1% | 3 | 0%
Cc1ccnc(NC(=O)c2cccc(S(=O)(=O)Nc3ccc(C)cc3C)c2)c1 | 2% | 0.5% | . | .
O=C1C=C(c2ccc3cc[nH]c3c2)C[C@@H](c2ccc3c(c2)OCO3)C1 | -8% | -3.1% | . | .
CCOC(=O)c1cc(-c2ccccc2)sc1NC(=O)CCN1C(=O)c2ccccc2C1=O | -20% | 0.2% | -6 | -4%
O=C(COC(=O)c1ccc(Cl)nc1)Nc1ccc2c(c1)OCCO2 | 24% | -1.0% | . | .
CC(Oc1ccc(Cl)cc1Cl)C(=O)NCc1ccncc1 (stereo unspecified) | 10% | -1.1% | 6 | 3%
Cc1ccc(-c2nnnn2-c2ccccc2C(=O)O)cc1 | 3% | -2.1% | . | .
C(#Cc1ccccc1)CN1CCCCC1 | 10% | -1.7% | -2 | 5%

Screening data from PubChem.

Not all compounds are listed (hit frequency here may not be typical).
